CtBP-E1A inh: qHTS Assay for Inhibitors of the CtBP/E1A Interaction. AlphaScreen GST-E1A/His-CtBP binding, 1536-well; active compounds read low; control for the full effect not named in the record. activity change, % (concentration not given with the values). 0.49% of 340,000 active. AID 651724, 2012; in the data active means activity change below about -65%; inconclusive means about -30% to -65%; inactive means above about -30%; also: % is scaled to controls: 0 for no effect and ±100 for the full control effect
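Homogeneous bead-based format: GST-tagged E1A captured on glutathione donor beads, His-tagged CtBP on nickel acceptor beads; compounds precede bead addition by 2 h at 37 °C.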
Sfp inh: qHTS Assay for Inhibitors of Bacillus subtilis Sfp phosphopantetheinyl transferase (PPTase); 4'-phosphopantetheinyl transferase ffp (Bacillus subtilis), Q9F4F7; Biochemical Sfp PPTase activity, qHTS; Potency, µM, for inactives: max response, negative = inhibition, actives largely listed as inhibitors; 3.5% of 310,000 active; AID 1490, 2009; active = well fitted inhibition curve with a large enough effect; inconclusive = small, poorly fitted or top-dose-only effect, or another doubt; inactive = no such curve, though single readings can be large or run the other way;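 also: the enzyme is Sfp with the accession as filed and its product quenches rhodamine fluorescence; potency is read from the fitted curve at half-maximal effect; 0% = enzyme reaction without inhibitor and -100% = no enzyme wells; top concentration of the series not given in the record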
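Compounds were incubated with enzyme (final 15 nM) for 15 min at room temperature before substrate addition started the reaction. Fluorescence at 525 nm excitation, 598 nm emission was recorded immediately and after 30 minutes.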
TRPV1 potentiator: HTS Assay for Compounds that Act as Potentiators of the Vanilloid Receptor 1; 0.02% of 320,000 active; TRPV1-expressing cells, Fluo-8 calcium influx, capsaicin EC20 potentiation; host cell line not named in the record; control for the full effect not named in the record; AID 540277, 2011; potentiation, % at 8.33 µM; Transient receptor potential cation channel subfamily V member 1 (Homo sapiens), Q8NER1; active means potentiation above 80%; inconclusive means 30% to 80%; inactive means below 30%; also: 0% is about no effect
Target sequence (Q8NER1 whole entry, looked up): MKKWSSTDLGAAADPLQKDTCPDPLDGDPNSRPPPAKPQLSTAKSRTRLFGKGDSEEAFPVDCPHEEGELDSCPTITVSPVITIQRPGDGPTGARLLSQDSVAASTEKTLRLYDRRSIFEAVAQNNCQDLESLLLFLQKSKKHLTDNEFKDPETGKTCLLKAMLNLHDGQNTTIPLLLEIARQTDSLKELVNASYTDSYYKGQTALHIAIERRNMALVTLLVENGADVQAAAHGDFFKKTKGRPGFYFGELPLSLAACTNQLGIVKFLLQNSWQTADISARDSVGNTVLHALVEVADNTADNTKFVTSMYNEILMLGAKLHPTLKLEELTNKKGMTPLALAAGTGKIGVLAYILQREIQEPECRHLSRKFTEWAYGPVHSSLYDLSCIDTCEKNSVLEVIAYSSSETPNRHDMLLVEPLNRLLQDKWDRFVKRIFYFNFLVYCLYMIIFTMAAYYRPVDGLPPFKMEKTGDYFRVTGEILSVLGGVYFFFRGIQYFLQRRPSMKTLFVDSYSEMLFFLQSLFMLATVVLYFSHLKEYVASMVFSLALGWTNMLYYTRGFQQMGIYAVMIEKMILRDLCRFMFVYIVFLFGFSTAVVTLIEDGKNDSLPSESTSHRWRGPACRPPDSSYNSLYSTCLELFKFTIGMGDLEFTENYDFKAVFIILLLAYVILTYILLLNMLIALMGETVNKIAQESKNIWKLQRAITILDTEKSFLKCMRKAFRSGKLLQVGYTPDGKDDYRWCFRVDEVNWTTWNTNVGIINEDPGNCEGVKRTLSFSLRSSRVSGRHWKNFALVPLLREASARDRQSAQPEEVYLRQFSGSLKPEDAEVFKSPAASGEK
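TRPV1-expressing cells were cultured overnight at 35.5C and loaded with Fluo-8 calcium dye for 40 to 90 min at room temperature. After a 10 s baseline, compound was added and calcium influx was read kinetically for 3 min (ex 480/em 520 nm).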
gsp agonist: qHTS for Agonist of gsp, the Etiologic Mutation Responsible for Fibrous Dysplasia/McCune-Albright Syndrome: qHTS | gsp mutant cells, cAMP HTRF, 30 min; control for the full effect not named in the record | Potency, µM (series often up to 76.9 µM), inactives show top-dose activation (cAMP increase), hits mostly activators | 0.13% of 340,000 active | AID 624287, 2012; active = well fitted activation curve with a large enough effect; inconclusive = small, poorly fitted or top-dose-only effect, or another doubt; inactive = no such curve, though single readings can be large or run the other way; cell line not stated here;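 also: phosphodiesterase inhibitor Ro 20-1724 added with compounds to block cAMP breakdown; potency is read from the fitted curve at half-maximal effect; nearly all actives have a fitted effect of over 60% in size; about a fifth of the inactives were tested at one dose only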
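Cells stably selected in G418 were plated at 2000/well, grown 16-24 hr, then given compounds in DMSO with the PDE inhibitor […] (300 uM solution added) for 30 min at 37C; cAMP was read by HTRF.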
ClpP mod: qHTS Assay for Activators of ClpP; ATP-dependent Clp protease proteolytic subunit (Bacillus subtilis (strain 168)), P80244; AID 651965, 2013; purified B. subtilis ClpP, FRET peptide cleavage, 20 min; Potency, µM (series often up to 57.5 µM), inactives show at the top dose activity change, negative = active; 1.9% of 340,000 active; active = well fitted falling curve with a large enough effect; inconclusive = small, poorly fitted or top-dose-only effect; inactive = no such curve, though single readings can be large or run the other way; also: potency is read from the fitted curve at half-maximal effect; the source files actives as falling curves though it sought activators and does not explain the sign; nearly all actives have a fitted effect of over 65% in size; many hits overshoot -100%
Target sequence (P80244 whole entry, looked up): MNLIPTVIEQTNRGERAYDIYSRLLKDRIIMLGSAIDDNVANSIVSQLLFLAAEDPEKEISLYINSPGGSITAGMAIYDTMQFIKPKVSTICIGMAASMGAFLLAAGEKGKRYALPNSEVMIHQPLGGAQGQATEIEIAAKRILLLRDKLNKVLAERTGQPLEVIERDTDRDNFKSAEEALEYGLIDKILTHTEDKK
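ClpP 10 microg/mL final, pH 8 Tris/KCl buffer with BSA, glycerol, Tween-20; compound pinned in; FRET-FV substrate; RT 20 min; Ex320/Em430; ΔFRET vs ADEP 5.8 microM, DMSO, no enzyme.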
Menin-MLL FL inh: qHTS Assay for Inhibitors Targeting the Menin-MLL Interaction in MLL Related Leukemias: Competition With Fluorescein Labeled MLL-derived Peptide; Fluorescence polarization, fluorescein-MLL peptide displacement from menin; FP activity change, % at 61.4 µM; AID 1766, 2009; 290,000 tested, under 10 active; inconclusive = falling polarisation curve, or a change in total fluorescence; inactive = total fluorescence flat and polarisation flat or rising; no compound was filed as active; the % refers to the polarisation; negative = inhibition;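 also: % of control where 0% means no effect; inhibitors lower the polarisation; unlabelled MLL peptide was the positive control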
gsp antag: qHTS for Antagonists of gsp, the Etiologic Mutation Responsible for Fibrous Dysplasia/McCune-Albright Syndrome: qHTS | gsp-mutant cells, cAMP HTRF, 30 min; control for the full effect not named in the record | Potency, µM (series often up to 76.9 µM), for inactives: at the top dose activity change, negative = inhibition, usual class: inhibitors | 0.4% of 340,000 active; active = falling curve of any shape with a large fitted effect; inconclusive = falling curve, mostly with a smaller effect; inactive = flat or rising curve; cell line not stated here;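 also: intracellular cAMP measured with PDE inhibitor Ro 20-1724 present during compound exposure; potency is read from the fitted curve at half-maximal effect; % is scaled to controls: 0 for no effect and ±100 for the full control effect; nearly all actives have a fitted effect of over 65% in size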
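Cells in G418 medium, seeded 16-24 h, 37C; buffer exchange to DPBS + 1 mM CaCl2, 0.5 mM MgCl2, 0.05% BSA; cpds in DMSO + […] (300 uM stock), 30 min 37C; HTRF cAMP detection.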
Starred values were filed as active, the others as inactive; ? = inconclusive; · = not tested or not shown; & = joins results of further samples; [ ] = another dose, or the depositor's remark.

Second line of a record: CtBP-E1A inh	Sfp inh	TRPV1 potentiator	gsp agonist	ClpP mod	Menin-MLL FL inh	gsp antag
> CCOc1ccc(S(=O)(=O)Nc2ccc3c(c2)c2c(n3S(=O)(=O)c3ccc(OCC)cc3)CCCC2=O)cc1
→ ·	4%	-6	·	·	2.5	·
> Cc1cnc(NC(=O)CSc2nnc(COc3c(C)cccc3C)o2)s1
→ -4	3%	13	?	1.2%	-1.8	-17%
> Cc1cc(C)c(S(=O)(=O)c2ccccc2C)c(SCC(C)C)n1
→ 21	-16%	6	?	-3.1%	0.3	1%
> CC1CCN(c2ccccc2NC(=S)NC(=O)c2ccco2)CC1
→ 11	·	·	-11%	-1.7%	·	-1%
> COc1cccc(CN(CC(=O)NC2CCCC2)C(=O)c2csnn2)c1
→ -2	4%	10	-1%[15.4 µM]	·	-3.7	-4%
> COc1ccc(NS(=O)(=O)c2cc(NC(=O)C3=NN(c4ccccc4)C(=O)CC3)ccc2OC)cc1
→ -7	·	·	-34%[inhibitor]	-6.3%	·	-23%
> Cc1ccc(CN2CC(=O)N3[C@H]4c5cc(Cl)ccc5OC[C@@H]4[C@H](c4ccccc4)[C@]3(C)C2=O)cc1
→ -12	·	1	·	-6.4%	·	-5%
> CCOc1ccc(C(=O)Nc2ccc(NC(=O)c3ccccc3)c(C)c2)cc1[N+](=O)[O-]
→ 6	3%	0	18%[15.4 µM]	-0.6%	-3.2	-11%
> COc1cc(O)c(C(CC(=O)N2CCCC(C)C2)c2cc(OC)c(OC)c(OC)c2)c(OC)c1 (centres undefined)
→ -5	5%&7%	-6	·	-2.5%	0.8&-1.8	-8%
> Cn1c(CO)cnc1S(=O)(=O)Cc1ccc([N+](=O)[O-])cc1
→ 3	-24%	-3	-21%	1.6%	-2.1	4%
> CCCCOC(=O)c1ccc(NC(=S)NC(=O)c2c(Br)c(C)nn2C)cc1
→ 11	4.5µM*	5	-26%	-2.2%	-1.0	5%
> C=CCNC(=O)COc1ccc(S(=O)(=O)NC2CCCCC2)cc1
→ 6	21%	-5	44%	0.4%	-3.8	-1%
> C[C@H](CO)N1C[C@H](C)[C@@H](CN(C)C(=O)C2CCCCC2)OCc2cnnn2CCCC1=O
→ -14	·	·	-55%[inhibitor]	0.2%	·	·
> Cc1ccc[n+](CC(=O)Nc2nc3ccccc3s2)c1
→ -2	11%	8	15%	-0.5%	1.8	8%
> Cc1c(C(=O)OC2CCCC2)[nH]c2c1C(=O)CC(c1ccco1)C2 (centres undefined)
→ 0	-14%	-27	1%	-0.5%	1.3	5%
> COc1cc(CC(=O)OCC(=O)Nc2cccc([N+](=O)[O-])c2)cc(OC)c1OC
→ 1	11%	-6	-17%	-3.7%	3.3	-16%
> Cn1c(Cc2cccs2)nnc1SCC(=O)Nc1ccc(F)cc1F
→ -3	·	-12	11%[15.4 µM]	·	·	-3%
> Cc1ccc(C(=O)Cn2c(C)cc(C)c(C#N)c2=O)cc1
→ 0	12%	-3	10%	-17%	-0.7	-7%
> COc1ccc(OC)c(C(C(=O)NC2CCCCC2)N(C(=O)c2ccccn2)c2cccnc2)c1 (centres undefined)
→ 2	21%	-9	0%[15.4 µM]	·	-3.1	6%
> CN(Cc1cnn(C)c1)C(=O)C1CCC(=O)N(Cc2ccc(Cl)cc2)C1 (centres undefined)
→ -12	5%	-4	-2%	-1.7%	·	3%
> CN(C)c1ccc(/C=C(\NC(=O)c2ccccc2)C(=O)N/N=C/c2ccc(C(=O)O)cc2)cc1
→ -1	17%	7	0%	·	26	-15%
> O=C(Nc1ccc(N2CCCC2)cc1)C(Cl)c1ccccc1 (centres undefined)
→ -26	45µM*	16	-5%[15.4 µM]	-12%	1.2	?
> CN(C)S(=O)(=O)c1ccc(C(=O)OCn2nnc3ccccc3c2=O)cc1
→ -3	6%	-5	-100%	1.3%	0.7	-11%
> O=C(c1ccccc1)N1CCN(CC(O)COc2ccc(Br)cc2)CC1 (centres undefined)
→ ·	16%	-8	-1%	1.5%	-4.5	-9%
> Cc1ccc(C)n1CCN1CCN(C(=O)CC#N)CC1
→ -12	5%	1	-19%[15.4 µM]	·	?	10%
> Cc1ccc(S(=O)(=O)N(C)c2ccc(C(=O)NCc3ccccc3F)cc2)cc1
→ 2	·	-3	10%[15.4 µM]	·	·	-13%
> CSc1ccc(/C=C(\NC(=O)c2ccc(C)cc2)C(=O)NN)cc1
→ ·	2%	-6	-41%[inhibitor]	-7.3%	2.1	2%
> Cc1ccc(/C=N/NC(=O)c2nnn(-c3nonc3N)c2CSc2ccccc2)s1
→ -21	9%	-25	-19%	·	5.3	0%
> Cc1ccc(NC(=O)c2cc(=O)[nH]c3ccc(S(=O)(=O)N4CCOCC4)cc23)cc1
→ ·	·	-17	?	-2.7%	·	7%
> CNc1nc(-c2ccccc2)nc(-c2ccccc2)c1C#N
→ 31	1%	-12	13%	-7.9%	0.3	22%
> Nc1ccc(OCCCc2c(N)nc(N)nc2N)cc1
→ ·	9%	9	-33%[inhibitor]	0.6%	3.7	-3%
> Cc1ccc(-n2ncc3c(SCc4ccccc4)ncnc32)cc1
→ 8	-11%	26	8%	22µM*	3.4	6%
> O=[N+]([O-])c1ccc(N2CCN(C(=S)c3cccc([N+](=O)[O-])c3)CC2)cc1
→ -4	5.6µM*	8	2%[15.4 µM]	·	1.4	9%
> O=C(Nc1ncn[nH]1)c1ccc([N+](=O)[O-])cc1[N+](=O)[O-]
→ -26	-28%	-3	?	-0.6%	-0.3	10%
> CCc1cccc(NC(=O)CN(C)C2=NS(=O)(=O)c3ccccc32)c1
→ 0	·	4	-26%	-0.1%	·	3%
> COc1cc(OC)c(OC)cc1/C=N/NC(=S)NCC1CCCO1 (centres undefined)
→ -11	-21%	13	29%	32µM*	?	-10%
> CCn1c(SCC(=O)Nc2cc(NC(C)=O)ccc2OC)nnc1-c1cccnc1
→ 8	0%	0	-59%[inhibitor]	0.1%	-0.7	6%
> CCCCOc1ccc(C(=O)Nc2ccc(N3CCN(C(C)=O)CC3)cc2)cc1
→ -17	6%	-17	9%	0.4%	-3.8	9%
> CCC(CC)c1nnc(NC(=O)c2cc([N+](=O)[O-])ccc2N2CCCCC2)s1
→ 0	4%	3	7%[15.4 µM]	·	7.2	-14%
> COc1ccc(Br)cc1CN(C)CC(=O)Nc1cc(Cl)cc(Cl)c1
→ -4	-6%	-14	-2%[15.4 µM]	?	3.3	-12%
> N#Cc1ccc(-c2ccccc2)nc1SCC(=O)c1cc2ccccc2oc1=O
→ 0	?	-1	7%	0.5%	7.4	-17%
> CCOc1ccc(NC(=S)N(CCOC)C(C)c2ccco2)cc1 (centres undefined)
→ ·	19%	13	15%	2.1%	0.9	-7%
> CCN(CC)c1ccc(Nc2nc(N3CCOCC3)c3ccccc3n2)cc1
→ -78*	?	1	-19%	-3.5%	1.3	50µM*
> O=C(O)CN1C(=O)C2(OCCO2)c2cc(Br)ccc21
→ 7	·	·	4%[15.4 µM]	-4.9%	·	3%
> O=c1[nH]c2cc3c(cc2cc1CN(Cc1ccco1)C(=S)NCCCN1CCOCC1)OCCO3
→ -8	3%	4	-46%[inhibitor]	·	3.4	2%
> NC(=O)C1CCN(C(=O)COc2ccc3c(c2)oc(=O)c2ccccc23)CC1
→ 0	25%	-14	·	4.7%	-4.2	-5%
> Cc1cc(C)cc(OCC(=O)NNC(=O)C2CCCO2)c1 (centres undefined)
→ 1	12%	0	24%[15.4 µM]	·	1.5	-12%
> CN(C)c1ccc(NC(=O)c2ccc3nc[nH]c3c2)cc1
→ ·	8%	25	-1%	1.7%	?	-24%
> CCCS(=O)(=O)N1CCn2c(nc3ccccc32)C1
→ 5	22%	23	-30%[inhibitor]	-2.6%	-2.9	8%
> COc1cccc(/C(O)=C2/C(=O)C(=O)N(Cc3ccco3)C2c2ccncc2)c1 (centres undefined)
→ 8	-24%	?	-29%	0.4%	6.7	14%
> Cc1cccc(NC(=O)c2cc(-c3ccccn3)nc3ccccc23)c1C
→ -6	2%	0	20%[15.4 µM]	-0.9%	-1.6	-97%
> CCCCn1c(N)c(N(CC(C)C)C(=O)C2CCC2)c(=O)[nH]c1=O
→ 8	·	0	-24%	1.4%	·	10%
> Cc1cccc(C(=O)N[C@H](C(=O)NCCc2ccc(Cl)cc2)C(C)C)c1
→ 0	11%	-20	-24%	·	2.2	-5%
> COc1ccccc1CNC(=O)COC(=O)/C=C/c1ccc(OC(F)F)c(OC)c1
→ -6	·	-5	-63%	?	·	-8%
> O=C(Nc1nc2ccccc2[nH]1)c1ccc(F)cc1
→ -16	13%	-10	25%	-3.3%	2.0	-4%
> COc1ccc(NC(=O)CN2CCN(S(=O)(=O)c3ccc(F)cc3)CC2)cc1Cl
→ 3	9%	12	2%	3.2%	-0.3	-13%
> CCCc1sc(N2CCCC(C(N)=O)C2)nc1-c1ccccc1 (centres undefined)
→ -5	7%	-5	-15%	5.7%	4.1	0%
> COc1ccc(CCNC(=O)C2CC(c3ccc(C(F)(F)F)cc3)=NO2)cc1 (centres undefined)
→ ·	16%	22	9%	-0.9%	2.4	-1%
> Cc1cc(C(=O)OCC(=O)Nc2cc(S(=O)(=O)N(C)C)ccc2C)c2ccccc2n1
→ 3	7%	-6	-3%[15.4 µM]	1.4%	-1.3	-14%
> COc1ccc(-c2nn(-c3ccccc3)cc2C(=O)N(C)CC(=O)Nc2ccc(N3CCOCC3)cc2)cc1
→ -8	·	-1	-62%[inhibitor]	2.1%	·	7%
> O=C1NC(=S)NC1=Cc1ccc2c(c1)CCC2
→ 9	·	·	-17%	2.2%	·	-8%
> O=C(NCCN1CCCCC1)c1ccco1
→ 6	15%	-3	12%	-0.7%	0.5	4%[15.4 µM]

Screening results as filed in PubChem.
